B2AR arrestin: recruits beta-arrestin to the human beta2-adrenergic receptor. P07550. beta-arrestin recruitment to beta2AR, cell-based reporter. Potency, µM (highest dose often 46.1 µM), for the others: top-dose activation, most hits filed as activators. actives 0.02% (n = 330,000). AID 492947;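 also: potency is read from the fitted curve at half-maximal effect; 0% = DMSO controls and full agonism = EC100 isoproterenol or metaproterenol; nearly all actives have a fitted effect of over 65% in size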
Target sequence (P07550 whole entry, looked up): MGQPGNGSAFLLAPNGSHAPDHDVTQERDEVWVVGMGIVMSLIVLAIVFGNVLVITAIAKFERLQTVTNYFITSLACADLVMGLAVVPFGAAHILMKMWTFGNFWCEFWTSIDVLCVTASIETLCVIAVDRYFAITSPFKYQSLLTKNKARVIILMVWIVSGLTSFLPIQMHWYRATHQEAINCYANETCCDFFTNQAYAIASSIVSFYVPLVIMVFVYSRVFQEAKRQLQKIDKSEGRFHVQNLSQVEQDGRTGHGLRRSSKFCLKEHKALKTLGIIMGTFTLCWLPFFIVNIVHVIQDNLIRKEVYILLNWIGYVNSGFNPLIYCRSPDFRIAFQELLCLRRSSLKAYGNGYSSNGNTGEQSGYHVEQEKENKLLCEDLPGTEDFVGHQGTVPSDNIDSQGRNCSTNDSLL
GALK inhibitor: blocks human galactokinase activity | AID 1868 | Potency, µM (highest dose often 57.5 µM), for inactives: top-dose activity change, negative = inhibition, hits mostly inhibitors | actives 0.007% (n = 270,000) | Purified GALK, Kinase-Glo residual ATP luminescence; also: potency is read from the fitted curve at half-maximal effect; % is scaled to controls: 0 for no effect and ±100 for the full control effect
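Kinase-Glo Plus luminescence measured ATP left after a 1 h room-temperature reaction. The reaction used 5 nM GALK, 100 uM galactose and 35 uM ATP at pH 8.0 (20 mM HEPES, 5 mM MgCl2, 60 mM NaCl, 1 mM DTT, 0.01% BSA).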
Chronic BCR inh: inhibitors of chronic active B-cell receptor signaling; Potency, µM (titrated, usually from 46.1 µM), inactives show at the highest dose ratio change, negative = lower green/red ratio, usual class: inhibitors; actives 0.05% (n = 340,000); AID 493014; ABC-DLBCL IkBa-CBG/CBR reporter, luminescence ratio, 4 h; active = well fitted inhibition curve with a large enough effect in the signal ratio, with a control signal flat, not every such curve was filed as active; inconclusive = small, poorly fitted or top-dose-only effect, or effect the other way, or a change in a side signal; the % refers to the signal ratio;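 also: potency is read from the fitted curve at half-maximal effect; plate controls were basal doxycycline-induced cells for no effect and cells given 10 µM MG132 for full effect; MG132 reads +100%, hits lower the ratio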
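Concentration-response series (up to 46 uM) were applied to TMD8 dual-reporter cells for 4 h at 37C with doxycycline. Green/red ratio, after filter-overlap correction, defined %Activity; red signal alone was normalised to basal cells and zero luminescence.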
Tb PFK inh: T. brucei PFK enzyme inhibition. AID 485367. actives 0.17% (n = 330,000). T. brucei PFK, ADP-Glo luminescence. O15648. Potency, µM (top dose mostly 57.5 µM), without a hit: at the top dose activity, negative = inhibition, most hits filed as inhibitors;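 also: potency is read from the fitted curve at half-maximal effect; 0% = uninhibited 1x PFK enzyme wells and -100% = no-enzyme wells; nearly all actives have a fitted effect of over 60% in size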
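PFK 1.25 nM, F6P 0.5 mM, ATP 0.1 mM, 0.1 M TEA pH 8.0, 5 mM MgCl2, 0.01% Tween20, 0.1% BSA; 45 min RT. ADP-Glo readout. qHTS titration up to 57 uM; curves fitted, compounds curve-classed.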
PTAP TSG101 blk: blocks PTAP/TSG101 interaction to inhibit HIV-1 budding | Q99816 | 340,000 tested, under 10 active | Potency, µM (series often up to 115 µM), without a hit: top-dose activity change, negative = inhibition, most hits filed as inhibitors | Fluorescence polarization, FITC-PTAP peptide / Tsg101 binding | AID 493005; active = well fitted inhibition curve with a large enough effect in the main read-out, with a control signal flat, not every such curve was filed as active; inconclusive = small, poorly fitted or top-dose-only effect, or effect the other way, or a change in a side signal; inactive = no such curve, though single readings can be large or run the other way; also: potency is read from the fitted curve at half-maximal effect; % of control where 0% means no effect
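FP read-out: FITC-PTAP peptide, 50 nM final, binding Tsg101 binding domain, 10 uM final; 20 min, r.t.; 10 mM HEPES pH 7.5, 0.15 M NaCl, 0.01% Tween 20, 3 mM EDTA, 0.1 mM TCEP.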
S-ASM inh: human S-ASM enzyme inhibition; P17405; placental ASM, HMU-PC fluorogenic substrate, 60 min; Potency, µM (highest dose often 57.5 µM), for inactives: top-dose activity change, negative = inhibition, usual class: inhibitors; actives 0.006% (n = 340,000); AID 504937; also: potency is read from the fitted curve at half-maximal effect
Target sequence (P17405 47-631 limits assumed): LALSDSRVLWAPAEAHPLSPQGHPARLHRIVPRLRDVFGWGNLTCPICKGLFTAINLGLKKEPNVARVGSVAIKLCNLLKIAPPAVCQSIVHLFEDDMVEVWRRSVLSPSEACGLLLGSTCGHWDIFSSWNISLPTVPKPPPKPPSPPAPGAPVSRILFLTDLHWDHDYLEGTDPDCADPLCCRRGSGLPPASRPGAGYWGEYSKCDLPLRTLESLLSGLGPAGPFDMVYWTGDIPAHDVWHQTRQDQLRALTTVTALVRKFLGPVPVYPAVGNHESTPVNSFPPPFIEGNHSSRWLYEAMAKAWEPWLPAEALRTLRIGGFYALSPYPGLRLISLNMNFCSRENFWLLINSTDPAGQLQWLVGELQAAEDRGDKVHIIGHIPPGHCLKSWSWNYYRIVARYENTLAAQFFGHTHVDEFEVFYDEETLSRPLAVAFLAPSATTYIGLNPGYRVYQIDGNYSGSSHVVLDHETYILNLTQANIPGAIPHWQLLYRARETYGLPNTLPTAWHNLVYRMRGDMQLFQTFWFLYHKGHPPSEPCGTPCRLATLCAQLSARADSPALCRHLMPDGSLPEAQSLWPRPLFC
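Fluorescence read-out (Ex 386 nm, Em 447 nm) after stopping the reaction at pH 10. Enzyme: ASM from human placenta; substrate HMU-PC0, 9 uM final; 60 min, 37 °C. Compound preincubation 10 min, ambient temperature.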
PKM2 activator: activators of human pyruvate kinase M2. AID 1631. actives 0.34% (n = 260,000). P14618. purified PKM2, Kinase-Glo ATP luminescence, activation; response scale: 0% is enzyme alone, no compound. Potency, µM (doses to about 57.5 µM), without a hit: top-dose activation, most hits filed as activators; also: potency is read from the fitted curve at half-maximal effect; % is scaled to controls: 0 for no effect and ±100 for the full control effect; nearly all actives have a fitted effect of over 55% in size
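hPK-M2, >95% pure; 0.1 mM ADP / 0.5 mM PEP final; imidazole pH7.2 buffer w/ 7 mM MgCl2, 50 mM KCl; 1 h RT; Kinase-Glo lum. Intermediate enzyme activity for dual inhibitor/activator qHTS.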
Giardia killer: kills Giardia lamblia | activity change, % at 7.66 µM, hits read low | actives 0.15% (n = 340,000) | Giardia lamblia trophozoite viability | AID 540267; in the data active = activity change below about -80%; inconclusive = between about -30% and that limit;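 also: parasites exposed to compound for two days anaerobically before the ATP read; % is scaled to controls: 0 for no effect and ±100 for the full control effect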
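Trophozoite viability was measured as ATP-dependent luminescence, read 15-30 min after reagent addition. Before that, parasites at 100 cells/well were exposed to compounds for 48 h, anaerobically, at 37 deg C.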
Integrin act MD: activates integrin-mediated alleviation for muscular dystrophy; alpha7betagal myoblasts, beta-gal FDG fluorescence, 48 h; Potency, µM (top dose mostly 38.3 µM), for the others: at the top dose activation, usual class: activators; actives 0.064% (n = 350,000); AID 624291;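 also: potency is read from the fitted curve at half-maximal effect; 100% = response of the positive control SU9516; nearly all actives have a fitted effect of over 60% in size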
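alpha7betagal+/- myoblasts (passage 13, 250/well) treated 48 h at 37C with compounds at 1:260 dilution of DMSO stock. Lysed, then beta-galactosidase activity read as FDG fluorescence (ex 480/em 540) after 30 min, with pre-read for autofluorescence.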
FBPA coupling cs: inhibits coupling enzyme system, counter-screen for aldolase hits. coupling enzyme system counterscreen, AmpLite Red fluorescence. activity change, negative = inhibition, % at 58.2 µM, hits read low. actives 0.67% (n = 290,000); in the data active = activity change below about -30%; also: % is scaled to controls: 0 for no effect and ±100 for the full control effect
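Activity here indicates interference with the coupling reaction, not aldolase inhibition. Compounds at 57.5 uM final met coupling enzymes for 10 min at RT; substrate and AmpLite Red detection followed, with a 525/598 nm fluorescence read after 20 min.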
* marks the source's active call; other numbers are inactive results; ? = inconclusive; nt = no result given; & = joins results of further samples; [ ] = remark or other dose. Unless noted, calls follow the shape of the dose curve; as a rule, active = well fitted curve in the direction sought with a large enough effect; inconclusive = small, poorly fitted or top-dose-only effect, or another doubt; inactive = no such curve, though single readings can be large; an effect the other way counts as inactive or inconclusive. These rows are one share of the data; rates above refer to the full screens.

Sequence of screens – B2AR arrestin | GALK inhibitor | Chronic BCR inh | Tb PFK inh | PTAP TSG101 blk | S-ASM inh | PKM2 activator | Giardia killer | Integrin act MD | FBPA coupling cs
> C=CCNC(=O)NC(=O)CSc1nnc(C(F)(F)F)n1C
→ -0.3% | 1% | 1% | 0% | -3% | -1% | 0% | 15 | -22% | 3
> Cc1ccc(NC(=O)c2ccc(N/N=C/c3cccc(O)c3)c([N+](=O)[O-])c2)cc1
→ -0.5% | -1% | ? | -3% | 1% | -13% | -9% | 14 | 9% | 2
> COc1ccc(OCCCC(=O)Nc2ccc3c(c2)OCCO3)cc1
→ -1.1% | -1% | 0% | 0% | -6% | 1% | -4% | -4 | -4% | -6
> NC(=O)C(c1ccc(Cl)cc1)c1ccc(Sc2ccccc2)nn1 (stereo unspecified)
→ -0.4% | 3% | 0% | 3% | -3% | 0% | 4% | -5 | 4% | 3
> CC(NC(=O)COC(=O)Cc1ccc(-c2ccccc2)cc1)c1ccccc1 (stereo unspecified)
→ 0.8% | 1% | -5% | -2% | 0% | -9% | 0% | 9 | -24% | 1
> CCc1ccccc1NC(=O)c1ccc2c(c1)CCN2S(C)(=O)=O
→ -1.3% | 3% | -4% | -3% | -3% | -2% | 0% | -8 | -3% | 1
> CC(=O)NC(=O)NC1OC(=O)C(Cl)=C1Cl (stereo unspecified)
→ -0.2% | 7% | 9% | -1% | -5% | 2% | 0% | -16 | 8% | 6
> Cc1cc2ncc(-c3ncc(C(F)(F)F)cc3Cl)cn2n1
→ 0.1% | 0% | ? | -7% | -7% | 4% | -31% | ? | 34% | -1
> O=C(O)c1cccc(NC(=S)NC(NC(=O)c2ccccc2[N+](=O)[O-])C(Cl)(Cl)Cl)c1 (stereo unspecified)
→ 0.1% | 5% | ? | -1% | -4% | -2% | 19% | ? | -10% | 4
> O=C(COC(=O)CCC(=O)c1ccc(F)cc1)Nc1ccc(F)cc1F
→ -0.8% | 1% | 7% | -2% | 0% | -2% | 7% | 3 | -13% | 3
> Cc1ccc(S(=O)(=O)N2CCOCC2)cc1C(=O)Nc1ccc(S(=O)(=O)Nc2nccs2)cc1
→ -0.3% | 7% | -1% | 1% | 1% | 7% | 3% | -1 | 19% | -1
> CCN1CCN(CC(=O)Nc2sc3c(c2C#N)CCC3)CC1
→ -2.2% | 0% | 5% | ? | -10% | 3% | -3% | 2 | -6% | 0
> Cc1cccc(C)c1Nc1nnc(SCC(=O)NC(=O)c2cccn2C)s1
→ -0.5% | -1% | -7% | -1% | -1% | -3% | 1% | -6 | 8% | -2
> COc1ccc(C(=O)NCc2nnc(SCCOc3ccccc3)n2C)cc1
→ -0.2% | -2% | -3% | 1% | -4% | -1% | -5% | -16 | 35% | -2
> COc1ccc(/C=C/C(=O)c2ccoc2)cc1
→ 0.0% | -4% | ? | -3% | -1% | 32%[activator] | -4% | -10 | -19% | 0
> CC1=C(/C=C/C(C)=C/C=C/C(C)=C/C=C/C=C(C)/C=C/C=C(C)/C=C/C2=C(C)C(=O)C(O)CC2(C)C)C(C)(C)CC(O)C1=O (stereo unspecified)
→ nt | nt | nt | nt | nt | nt | nt | nt | nt | -1
> Cc1sc2ncnc(Sc3nnc4sc5ccccc5n34)c2c1C
→ -0.9% | 1% | ? | 2% | nt | nt | -9% | nt | nt | -3
> COc1cccc(/C=C/C(=O)OCC(=O)Nc2ccc(S(=O)(=O)N3CCCC3)cc2)c1
→ -3.4% | -1% | 3% | -1% | 0% | -8% | 1% | 0 | -8% | -2
> O=C(Nc1ccccc1Cl)c1ccccc1S(=O)(=O)c1ccccc1[N+](=O)[O-]
→ -0.3% | 3% | -1% | -1% | -4% | -1% | -5% | -19 | -1% | -2
> Cc1ccc(-c2cc(=O)c3cc(Cl)ccc3[nH]2)cc1
→ -0.7% | 1% | -27% | 0% | nt | nt | 1% | nt | nt | 1&0
> CC1CCN(C(=O)CSc2nnc(-c3cccs3)o2)CC1
→ 0.0% | 0% | ? | 6% | 0% | -2% | 0% | -15 | 25% | 4
> CC1CN(c2ccc(C(F)(F)F)cc2[N+](=O)[O-])CCN1S(C)(=O)=O (stereo unspecified)
→ -0.8% | -3% | 4% | 3% | -3% | -4% | -3% | -7 | -1% | 0
> O=S1(=O)C=C(Sc2nnc(-c3ccccc3)o2)c2ccccc21
→ -0.4% | 6% | ? | ? | -3% | 0% | 6% | 6 | -28% | -1
> CC(C)Cc1nc2n[nH]c(N)c2c2c1CCCC2
→ 0.4% | 5% | -2% | 1% | -4% | 3% | -4% | 1 | 16% | -2
> COc1ccc(N(C(C)=O)S(=O)(=O)c2cccc3cccnc23)cc1
→ -0.3% | -2% | 0% | 2% | 0% | -1% | 4% | -1 | 22% | 1
> Cc1cc(C)c(NC(=O)Cn2nnc(C(=O)NCc3ccco3)c2N)c(C)c1
→ 0.0% | -2% | 6% | -3% | -2% | -3% | -5% | 8 | 32% | 0
> CCCc1cc(Nc2ccccc2C)n2ncnc2n1
→ 0.3% | 2% | -12% | 2% | -2% | 0% | -14% | 16 | 6% | 0
> CCN(CC)CCn1c(NC(=O)c2ccc(C(F)(F)F)cc2)nc2ccccc21
→ -0.1% | -2% | ? | -5% | 0% | -3% | 20% | 2 | -10% | 1
> Cc1ccc(NC(=S)NC(NC(=O)c2ccccc2C)C(Cl)(Cl)Cl)c(C)c1 (stereo unspecified)
→ 5.8% | -1% | ? | -2% | 0% | -8% | -1% | -1 | -6% | 6
> COc1ccccc1C1/C(=C(/O)c2ccccc2)C(=O)C(=O)N1CC(C)O (stereo unspecified)
→ -1.2% | -1% | 1% | 0% | -1% | -3% | 0% | 6 | 1% | -16
> Fc1ccc(-n2ncc3c(SCc4cccnc4)ncnc32)cc1
→ -0.5% | 0% | 11% | 1% | -1% | 0% | ? | -1 | -40% | -3
> COc1ccc(CNCCC(c2ccc(OC)cc2)c2ccccc2OC)cc1 (stereo unspecified)
→ -0.5% | nt | ? | -7% | 0% | -3% | nt | 13 | -71%[inhibitor] | -1
> OC(CN1CCN(C(c2ccccc2)c2ccccc2)CC1)c1ccccc1 (stereo unspecified)
→ -1.0% | 2% | -8% | 0% | -2% | 2% | nt | -18 | -62%[inhibitor] | -1
> COc1cc(CC(=O)O)c(C(C)=O)cc1OC
→ -0.4% | 0% | 8% | -1% | -3% | 2% | 0% | 10 | 4% | 1
> COc1cccc(C(O)c2nc3ccccc3n2C(C)C)c1OC (stereo unspecified)
→ 0.4% | nt | 0% | 2% | -1% | 31% | nt | -3 | -10% | -3
> O=C(Cc1ccc(-n2c(=O)c3sccc3n(Cc3ccc(F)cc3)c2=O)cc1)NCc1ccco1
→ 0.3% | 2% | -10% | -1% | 0% | 0% | 1% | 12 | -1% | 1
> COc1ccc(/C=N/NC(=O)c2cccc(C(=O)N/N=C/c3ccc(OC)cc3)n2)cc1
→ -0.3% | 3% | -8% | 3% | -2% | 355% | nt | 2 | ? | 1
> COc1ccc(NC(=O)CSc2nc(NS(=O)(=O)c3ccc(C)cc3)cc(=O)[nH]2)cc1
→ -0.2% | 1% | 11% | ? | -3% | -7% | 0% | 16 | -18% | 1
> CCN(C(=O)CSc1nnc(C)n1-c1ccccc1)C1CCS(=O)(=O)C1 (stereo unspecified)
→ 0.1% | 16% | 2% | 0% | 0% | -5% | -3% | -18 | 7% | 0
> O=C(N[C@@H](Cc1ccccc1)C(=O)NCCc1c[nH]c2ccccc12)c1ccco1
→ 0.1% | 4% | -20% | 1% | -5% | -1% | 3% | 13 | 3% | -1
> Cc1cccc(NC(=O)CN2C(=O)N/C(=C\c3cccn3-c3cccc(C(=O)O)c3)C2=O)c1
→ -0.4% | 1% | 5% | -6% | -3% | 1% | -3% | -17 | 10% | -1
> COC(=O)C1=NN(c2ccccc2)C2C(=O)N(c3ccccc3OC)C(=O)C12 (stereo unspecified)
→ -0.2% | 0% | 6% | 0% | -1% | 18% | -1% | -3 | 16% | 1
> CCn1c(COc2ccc(C)cc2)nnc1SCC(=O)NNC(=O)c1ccc(OC)cc1
→ 0.0% | 2% | 0% | 0% | 1% | 2% | 2% | -17 | 0% | -2
> O=C(COc1cccc2ccccc12)NNC(=O)Nc1ccccc1
→ -0.4% | 0% | ? | 2% | -4% | -1% | 2% | 12 | -20% | 5
> CC(/C=C/c1ccccc1)=N/NC(=O)c1cc([N+](=O)[O-])cc([N+](=O)[O-])c1
→ -3.2% | 2% | 0% | 0% | -4% | 0% | -2% | 6 | 10% | -9
> COc1cc(OC)c(/C=C2\SC(=O)N(CC(=O)Nc3ccccc3F)C2=O)c(OC)c1
→ 0.4% | 1% | -1% | -3% | -2% | 141%[activator] | -5% | 1 | -29% | -1
> Cc1ccc(C(=O)COC(=O)CCc2nc3ccccc3[nH]c2=O)cc1C
→ -0.8% | 1% | 4% | 2% | -2% | -1% | -1% | -6 | 15% | 2

Source: PubChem BioAssay
